Source: PubChem BioAssay
SARS PLpro yeast – blocks SARS-CoV papain-like protease in a yeast assay; S. cerevisiae expressing SARS-CoV PLpro, growth rescue; control for the full effect not named in the record; Potency, µM (titrated, usually from 32.9 µM), for the others: at the top dose activity, positive = growth rescue; actives 0.19% (n = 330,000); note: 0% is about no effect; nearly all actives have a fitted effect of over 55% in size; growth read by luminescence after 48 h
2A StopGo – lowers the luciferase signal of an FMDV 2A StopGo reporter; human cells with a luciferase reporter of 2A StopGo recoding; control for the full effect not named in the record; Potency, µM (doses to about 57.9 µM), inactives show top-dose signal change, negative = less light; actives 1.2% (n = 410,000); AID 1159524; active = well fitted falling curve with a large enough effect; inconclusive = small, poorly fitted or top-dose-only effect; inactive = no such curve, though single readings can be large or run the other way; tested in HEK293T cells; note: % is set by controls: 0 for no effect and ±100 for the full control effect; nearly all actives have a fitted effect of over 45% in size; luciferase light after 4 h
Cruzain Triton – blocks cruzain activity in presence of Triton detergent; purified cruzain, Z-FR-AMC fluorescence, 0.01% Triton; Potency, µM, for inactives: max response, negative = inhibition, actives largely listed as inhibitors; actives 0.43% (n = 200,000); P25779; active = well fitted curve in the direction sought with a large enough effect; inconclusive = small, poorly fitted or top-dose-only effect, or another doubt; inactive = no such curve, though single readings can be large; an effect the other way counts as inactive or inconclusive;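 note: plate controls were neutral wells for no effect and buffer without enzyme for full effect; nearly all actives have a fitted effect of over 40% in size; top concentration of the series not given in the record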
Target sequence (P25779 123-467 limits assumed): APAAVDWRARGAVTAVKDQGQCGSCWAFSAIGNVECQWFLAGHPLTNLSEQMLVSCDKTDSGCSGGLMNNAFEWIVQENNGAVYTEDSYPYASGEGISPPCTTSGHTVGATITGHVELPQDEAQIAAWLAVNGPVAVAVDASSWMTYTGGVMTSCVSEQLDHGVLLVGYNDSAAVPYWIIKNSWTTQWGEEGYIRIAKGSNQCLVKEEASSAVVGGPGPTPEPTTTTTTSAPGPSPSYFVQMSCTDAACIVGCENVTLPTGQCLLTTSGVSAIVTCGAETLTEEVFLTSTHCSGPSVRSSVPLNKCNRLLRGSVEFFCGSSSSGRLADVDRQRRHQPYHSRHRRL
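Compounds were screened in titration against cruzain (1.5 nM) with 0.01% Triton X-100 to counter colloidal aggregation. Activity was the AMC fluorescence increase over 60 s after adding 2 uM Z-FR-AMC at pH 5.5.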
Cruzain noTriton – cruzain (T. cruzi) inhibition without detergent | purified cruzain, Z-FR-AMC fluorescence, no detergent | Potency, µM, inactives show max response, negative = inhibition, most hits filed as inhibitors | actives 2.3% (n = 200,000) | AID 1476; active = well fitted curve in the direction sought with a large enough effect; inconclusive = small, poorly fitted or top-dose-only effect, or another doubt; inactive = no such curve, though single readings can be large; an effect the other way counts as inactive or inconclusive;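 note: plate controls were enzyme without inhibitor for no effect and buffer without enzyme for full effect; nearly all actives have a fitted effect of over 40% in size; top concentration of the series not given in the record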
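Detergent-free condition (0.00005% Triton X-100) in acetate buffer pH 5.5 with DTT. 1.5 nM enzyme and compound were pre-mixed 15 min, then 2 uM Z-FR-AMC substrate added; reaction progress from fluorescence change between first and third reads (60 s).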
LASV entry inh – inhibitors of Lassa virus binding or cell entry. Potency, µM (doses to about 37.9 µM), for inactives: at the highest dose activity change, negative = inhibition, actives largely listed as inhibitors. Lassa virus pseudotype entry inhibition, cell reporter; control for the full effect not named in the record. actives 1.2% (n = 300,000); active means well fitted inhibition curve with a large enough effect; inconclusive means small, poorly fitted or top-dose-only effect, or effect the other way; inactive means flat fitted curve, though single readings scatter; tested in HEK293 cells; note: % is set by controls: 0 for no effect and ±100 for the full control effect; nearly all actives have a fitted effect of over 50% in size; luciferase read-out
Marburg entry inh – Marburg virus entry inhibition; Marburg virus pseudotyped entry inhibition, cell reporter; control for the full effect not named in the record; about a third of the inactives were read at about 46 µM; Potency, µM (top dose mostly 37.8 µM), inactives show top-dose activity change, negative = inhibition, most hits filed as inhibitors; actives 1.8% (n = 300,000); active = well fitted inhibition curve with a large enough effect; inconclusive = small, poorly fitted or top-dose-only effect, or effect the other way; inactive = flat fitted curve, though single readings scatter; tested in HEK293 cells; about a fifth of its hits are not listed in these tables; note: % is set by controls: 0 for no effect and ±100 for the full control effect; luciferase read-out
RE007 growth inh – less growth of the S. pombe RE007 Vpr strain; S. pombe RE007 Vpr strain, BacTiter-Glo ATP luminescence, 24 h; control for the full effect not named in the record; actives 0.21% (n = 360,000); Potency, µM (highest dose often 92.2 µM), inactives show at the top dose activity change, negative = less growth; active = well fitted falling curve with a large enough effect; inconclusive = small, poorly fitted or top-dose-only effect; inactive = no such curve, though single readings can be large or run the other way;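 note: % is set by controls: 0 for no effect and ±100 for the full control effect; nearly all actives have a fitted effect of over 50% in size; the assay follows cell death caused by Vpr and the record does not say whether a fall means rescue or toxicity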
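Fission yeast strain RE007, carrying one chromosomally integrated HIV-1 vpr copy, was seeded at OD 0.01 in PMG+AL medium with 23 nL pinned compound. After 24 h at 30 °C and 99% humidity, viability was read by BacTiter-Glo luminescence.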
NS1 function inh – blocks influenza NS1 protein function. S. cerevisiae slowed by influenza A NS1, growth recovery by OD600. Potency, µM (doses to about 46.1 µM), without a hit: at the highest dose activity, positive = more growth. actives 0.4% (n = 270,000). AID 2326; note: actives are rising curves; nearly all actives have a fitted effect of over 50% in size
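In this qHTS, NS1 from influenza A is expressed in budding yeast, where it slows growth. Cells are switched from glucose to 2% galactose medium (pH 6.0, -URA), treated with compound, and growth recovery is read at OD600.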
* hit, by the source's call; ? = inconclusive; . = not tested or not shown; [ ] = remark or other dose. Unless noted, calls come from the whole dose curve; as a rule, active means well fitted rising curve with a large enough effect; inconclusive means small, poorly fitted or top-dose-only effect; inactive means no such curve, though single readings can be large or run the other way. Potency is the fitted concentration of half-maximal effect.

item	Structure	SARS PLpro yeast	2A StopGo	Cruzain Triton	Cruzain noTriton	LASV entry inh	Marburg entry inh	RE007 growth inh	NS1 function inh
1	COc1ccc(OCCCC(=O)Nc2ccc(N3CCOCC3)cc2)cc1	0%	9%	.	.	.	.	-12%	0%
2	O=C(OCc1ccc2c(c1)OCO2)c1ccc(S(=O)(=O)N2CCCC2)cc1	-9%	-20%	-5.2%	-11%	3%	3%	1%	-35%
3	CCOC(=O)CCCNC(=O)COc1ccccc1C#N	1%	-12%	1.8%	0%	-1%	17%	21%	-18%
4	O=C(CN1C(=O)NC2(CCc3ccccc32)C1=O)Nc1cccc(F)c1 (configuration not stated)	3%	-10%	.	.	8%	38%[46.1 µM]	0%	.
5	COc1ccc2oc(=O)c(/C(C)=N/NC(=O)c3ccncc3)cc2c1	-9%	-13%	-5.8%	-11%	3%	4%	-13%	8%
6	N#Cc1c(-c2ccccc2)cc(-c2ccco2)c(C#N)c1N	4%	.	-3.1%	-22%	.	0%	.	?
7	COCC(C)NCc1cccc([N+](=O)[O-])c1 (configuration not stated)	-2%	14%	0.9%	7%	8%	15%	-6%	-2%
8	O=C(Nc1nnc(C2=COCCO2)o1)c1ccc(S(=O)(=O)N2CCCC2)cc1	0%	-14%	.	.	2%[46.1 µM]	3%[46.1 µM]	6%	.
9	O=C(Nc1cnccn1)c1cccs1	-4%	41%[activator]	-1.3%	2%	17%	4%	6%	-17%
10	Cc1ccc(F)cc1NC(=O)CN1CCN(Cc2ccccc2)CC1	2%	-2%	.	.	.	.	-9%	0%
11	O=c1c(Br)ccc(Br)cc1Br	.	20µM*	.	.	?	4.5µM*	2.2µM*	.
12	Cc1ccc(CCC(=O)Nc2ccc(N(C)C)cc2)o1	-9%	38%[activator]	.	.	.	.	-5%	22%
13	COC(=O)c1ccccc1NC(=S)NC(NC(=O)c1ccccc1[N+](=O)[O-])C(Cl)(Cl)Cl (configuration not stated)	-5%	40%[activator]	-10%	4%	-3%	-3%	3%	1%
14	C/C(Cc1ccccc1)=N\NC(=O)C1CCCCC1	15%	-9%	1.4%	5%	-9%	-9%	2%	-5%
15	CCCc1nc(N2CCN(S(=O)(=O)c3ccc(Cl)cc3)CC2)c2c(C)c(C)sc2n1	1%	-20%	.	.	.	-1%[46.1 µM]	0%	-1%
16	Cc1nc2cc(C(=O)N3CCC4(CC3)OCCO4)ccc2n1-c1cccc(F)c1	?	-5%	5.3%	-3%	-17%	6%[46.1 µM]	10%	-2%
17	O=C(CCCN1C(=O)/C(=C/c2ccccc2)SC1=S)Nc1ccccc1O	1%	-23%	.	.	7%	?	-2%	1%
18	Cn1ncc(Cl)c(Oc2ccc(C(C)(C)C)cc2)c1=O	18%	1%	-1.6%	1%	18%	?	21%	-22%
19	O=C(Nc1ccc(COc2ccccc2)cc1)c1cccc([N+](=O)[O-])c1	-9%	9%	1.2%	-18%	4%	?	3%	2%
20	COc1ccc(Cl)cc1CSc1ncn[nH]1	-1%	-15%	.	.	-13%	0%[46.1 µM]	19%	-3%
21	CC(C)c1nc(SCC(=O)N2c3ccccc3CC2C)c2ccccc2n1 (configuration not stated)	-11%	.	-7.4%	1%	-25%	?	5%	-16%
22	O=S(=O)(Nc1ccc(N2CCOCC2)nn1)c1ccccc1	6%	5%	0.6%	1%	10%	1%	-8%	6%
23	CCC(C)NC(=O)CSc1n[nH]c(=O)n1CCc1ccccc1 (configuration not stated)	1%	-3%	.	.	-15%	3%[46.1 µM]	1%	3%
24	CCOC(=O)C1CCCN(C(=O)Nc2cccc(Cl)c2)C1 (configuration not stated)	1%	16%	-2.2%	-6%	-22%	3%	-7%	-2%
25	CCC(C)C(NC(=O)CCC(=O)OCC(=O)[C@@]1(O)CCC2[C@@H]3CCC4=CC(=O)C=C[C@]4(C)C3[C@@H](O)C[C@@]21C)C(=O)O (some centres not stated)	-1%	8%	.	.	.	.	6%	8%
26	C[C@H](NC(=O)c1nc[nH]c1C(=O)N[C@@H](Cc1ccccc1)C(=O)OCc1ccccc1)C(=O)OC(C)(C)C	10%	-19%	.	.	.	.	10%	10µM*
27	Cc1ccc(Nc2nc(-c3sc(C)nc3C)cs2)cc1	-21%	9%	.	.	.	.	?	-56%
28	CCCn1nc(C(=O)Oc2ccc3c(C)cc(=O)oc3c2)c2ccccc2c1=O	-6%	-14%	39%[activator]	?	0%	25%	6%	-4%
29	CCc1ccccc1NC(=O)CSc1nnc(COc2ccccc2Cl)o1	.	-11%	-5.7%	0%	15%[46.1 µM]	5%[46.1 µM]	.	.
30	Cc1cc(C)nc(N(C#N)CCOc2ccccc2)n1	.	23%	0.1%	-13%	-1%	?	-6%	-14%
31	CCN(C(=O)c1ccc(C(=O)N(CC)c2ccccc2C)cc1)c1ccccc1C	.	-1%	-1.9%	-2%	9%[46.1 µM]	.	.	.
32	Cc1c(Cc2c(C)n(C)n(-c3ccccc3)c2=O)c(=O)n(-c2ccccc2)n1C	1%	-3%	1.0%	1%	0%	?	17%	-5%
33	COc1ccc(/C=C2\SC(=S)N(CCC(=O)Nc3cccc(C(=O)O)c3)C2=O)cc1	2%	47%[activator]	.	.	.	.	-7%	-2%
34	CCOC(=O)CNC(=O)c1ccc2[nH]c3c(c2c1)CCCC3	7%	.	-2.6%	3%	2%	?	2%	-9%
35	Cc1ccc(S(=O)(=O)NCCNC(=O)c2ccccc2)cc1	2%	0%	2.0%	1%	-3%	7%	9%	-1%
36	O=C(NCC(=O)N1CCCC(C(F)(F)F)C1)c1ccccc1F (configuration not stated)	-4%	22%	.	.	2%[46.1 µM]	?	-13%	.
37	CC(=O)Nc1ccc(NC(=O)c2ccc(COc3ccc(C)cc3)o2)cc1	2%	-1%	.	.	-9%[46.1 µM]	?	-14%	13%
38	CCOc1ccccc1OCCCCOc1ccccc1F	11%	-30%	-2.0%	5%	-5%	-14%	-28%	-5%
39	COc1ccc(Nc2nc(NN)nc(Nc3ccc(OC)cc3)n2)cc1	-7%	-5%	.	.	.	.	-15%	-6%
40	CCCSc1nnc2c(n1)OC(c1cccs1)Nc1ccc(Br)cc1-2 (configuration not stated)	.	8%	-4.2%	0%	1%[46.1 µM]	10%[46.1 µM]	.	.
41	CCN(CC)CCNC(=O)c1ccc(NC(=O)/C=C/c2cc(OC)c(OC)c(OC)c2)cc1	0%	-10%	.	.	3%[46.1 µM]	?	-9%	.
42	CCOC(=O)N1CCC(N2Cc3cccc(C(=O)Nc4ccc(S(=O)(=O)N(CC)CC)cc4)c3C2=O)CC1	-8%	1%	.	.	-2%[46.1 µM]	22%[46.1 µM]	4%	-1%
43	O=C(Nc1ccnn1C1CCN(C/C=C/c2ccccc2)CC1)c1ccccc1	-4%	0%	.	.	?	?	7%	-2%
44	O=C1c2ccccc2C(=O)N1CCn1c(=O)oc2ccccc21	0%	.	-1.9%	-2%	37%	13%	4%	-2%
45	CCOC(=O)C1=Nc2ccccc2C1=[N+]=[N-]	-16%	-1%	-4.2%	-3%	?	?	0.25µM*	-52%
46	CCOc1ccc(S(=O)(=O)NCCC(=O)Nc2ncccc2C)cc1	1%	-8%	.	.	12%	3%	4%	1%
47	O=C(Nc1nnc(-c2ccc(Cl)cc2)o1)C1CCCCC1	5%	30%[activator]	.	.	.	.	0%	1%
48	COC(=O)c1c(NC(=O)c2ccccc2)sc2c1CC(C)(C)OC2	0%	11%	-15%	19%	4%	13%	3%	-1%
49	Cc1ccc(Nc2c3c(nc4ccccc24)CCC3)cc1	0%	18µM*	.	.	?	11µM*	-11%	-34%
50	CCCSc1nn2c(=O)c3ccccc3nc2s1	-14%	-13%	-3.6%	5%	?	-23%	?	-59%
51	Cc1ccc(NC(=O)N2CCc3c([nH]c4ccccc34)C2c2ccccc2F)c(Cl)c1 (configuration not stated)	.	-10%	-4.1%	?	7.9µM*	.	.	.
52	Cn1c2c(c(=O)n(C)c1=O)C(C(F)(F)F)(C(F)(F)F)N=C(c1ccccc1Cl)N2	-14%	?	0.1%	-11%	5%	?	2%	-6%
53	COc1ccc(-c2nc3cc(C)ccn3c2NC(=O)c2cccc(F)c2)cc1	.	-8%	-7.1%	2%	?	?	.	.
54	COc1ccc(NC(=O)CSC2=Nc3ccccc3C3=NC(CCC(=O)NCc4ccco4)C(=O)N23)cc1 (configuration not stated)	.	?	1.5%	-13%	22%[46.1 µM]	.	.	.
55	Cc1c(N2C(=O)c3ccc(F)cc3C2=O)c(=O)n(-c2ccccc2)n1C	-13%	-18%	1.2%	0%	?	6%[46.1 µM]	33%	5%
56	Cn1ccsc1=NC(=O)c1cc(S(=O)(=O)N2CCOCC2)ccc1Cl	-9%	-26%	.	.	6%	-33%	-8%	.
57	COc1ccc(C(=O)Nc2c(Cl)cc(Cl)cc2C(=O)NCCN2CCOCC2)cc1	2%	-20%	0.0%	1%	-8%	17%	-30%	-2%
58	O=C(N/N=C/c1ccc(C(F)(F)F)cc1)c1ccncc1	-6%	34%[activator]	.	.	-1%	-9%	-6%	7%
59	Cc1cc(NC(=O)C2CC(=O)N(c3ccccc3Cl)C2)no1 (configuration not stated)	2%	-7%	.	.	-8%	1%[46.1 µM]	0%	3%
60	CCOCC(=O)N1CCN(c2cccc(Cl)c2)CC1	-2%	-6%	.	.	9%	?	1%	4%

Remaining list, next part:
item	Structure	SARS PLpro yeast	2A StopGo	Cruzain Triton	Cruzain noTriton	LASV entry inh	Marburg entry inh	RE007 growth inh	NS1 function inh
61	O=C(CSc1nnc(C2CC2)n1-c1ccccc1)NCCc1ccc(F)cc1	-6%	-23%	-2.2%	1%	-4%	-3%	-3%	-7%
62	CCCSc1ncc(Cl)c(C(=O)N(Cc2ccc(Cl)cc2)Cc2ccco2)n1	.	?	-7.3%	-19%	-24%[46.1 µM]	?	.	.
63	COc1ccc(C(=O)Nc2ccc(S(=O)(=O)NC(C)C)cc2)cc1	2%	-14%	3.4%	-1%	-3%	-2%	-5%	-9%
64	COc1cc(CN2CCc3ccccc3C2)cc([N+](=O)[O-])c1O	?	-4%	.	.	.	.	16%	24%
65	Cn1cc(CCNC(=O)CCc2nnc(CCCCc3ccccc3)o2)cn1	0%	2%	.	.	15%	-6%[46.1 µM]	4%	-5%
